HNF4A DNA FP: change in binding of human HNF4 alpha to DNA; actives 0.3% (n = 360,000); P41235; HNF4a-FITC DNA binding, fluorescence polarization, 1 h; activity change, % at 10 µM; in the data active = activity change above about 30%, passing the limit was not always enough;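 also: controls were the assay level and a saturating level of protein; the project sought stronger binding though the title names inhibitors; some compounds called inactive have numbers as strong as hits; positive values seem to mean higher polarization but the record does not say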
UCH37 inh: human UCH37 deubiquitinating enzyme inhibition | Q9Y5K5 | purified proteasome/UCH37, Ub-AMC cleavage fluorescence | inhibition, % (concentration not given with the values) | actives 0.33% (n = 330,000);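 active = mean of two replicates above 20%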;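 also: 0% = compound-free wells with enzyme and 100% = wells lacking proteasome; stock transfer was 100 nL into about 20 µL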
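Assay system: Proteasome-bound UCH37. Buffer or medium: pH 7.4 Tris-HCl (50 mM) with ovalbumin, ATP-MgCl2, DTT. Incubation: 30 min preincubation with enzyme, 25 min cleavage at room temperature. Measured by: fluorescence, ex 355 nm, em 460 nm. Read-out basis: percent inhibition. Control set: wells without proteasome as full block, compound-free enzyme plus substrate as uninhibited.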
ALR inh: inhibitors of human sulfhydryl oxidase ALR | P55789 | purified ALR, DTT oxidation, H2O2 HRP-luminol luminescence | inhibition, % (test concentration not listed) | actives 3.8% (n = 290,000) | AID 485317;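 active = mean and each replicate at 75% or more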;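 also: stock transfer was 7.5 nL into about 7.5 µL; 0% = neutral wells and 100% = wells with inactivated enzyme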
Target sequence (P55789 whole entry, looked up): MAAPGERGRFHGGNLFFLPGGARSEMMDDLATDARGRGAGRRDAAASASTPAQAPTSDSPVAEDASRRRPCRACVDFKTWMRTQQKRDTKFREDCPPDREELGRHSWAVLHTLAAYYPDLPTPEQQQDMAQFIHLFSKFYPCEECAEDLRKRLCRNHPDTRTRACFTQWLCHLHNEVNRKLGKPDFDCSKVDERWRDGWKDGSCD
FGF22 binding: FGF22 (human) thermal shift binding; AID 651658; calls only at 9.99 µM; Q9HCT0; actives 1.5% (n = 340,000); recombinant FGF22 thermal shift, SYPRO orange fluorescence; percent of sucrose octasulfate shift, DMSO zero;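 active = melting point raised past a set limit in the mean and every replicate; three in four hits are not shown here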
Target sequence (Q9HCT0 whole entry, looked up): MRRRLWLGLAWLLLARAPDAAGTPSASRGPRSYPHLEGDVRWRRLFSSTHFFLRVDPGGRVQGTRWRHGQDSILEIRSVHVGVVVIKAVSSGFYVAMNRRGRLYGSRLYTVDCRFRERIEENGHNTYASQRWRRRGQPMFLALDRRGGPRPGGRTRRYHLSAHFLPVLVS
E coli growth: blocks Escherichia coli growth; OD600 absorbance (concentration not given with the values); actives 0.21% (n = 330,000); OD600, 23 h; stronger effect = lower value;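 active = OD600 absorbance below the run mean of sample wells minus 3.6 SD, in any replicate, cut at about 0.56 in these data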;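 also: stock transfer was 300 nL into about 60 µL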
B2AR ag: agonists of human beta-2 adrenergic receptor inducing internalization. actives 0.43% (n = 340,000). P07550. Am2.2-beta2AR cells, FAP receptor internalization, flow cytometry; reference of the scale not given here. response, % (test concentration not listed);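 active = response above a set limit, near 3 SD of response in nonfluorescent compounds, cut at about 42% in these data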;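 also: stock transfer was 100 nL into about 11 µL; a reference agonist was the positive control; negative values mostly stem from fluorescent compounds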
Target sequence (P07550 whole entry, looked up): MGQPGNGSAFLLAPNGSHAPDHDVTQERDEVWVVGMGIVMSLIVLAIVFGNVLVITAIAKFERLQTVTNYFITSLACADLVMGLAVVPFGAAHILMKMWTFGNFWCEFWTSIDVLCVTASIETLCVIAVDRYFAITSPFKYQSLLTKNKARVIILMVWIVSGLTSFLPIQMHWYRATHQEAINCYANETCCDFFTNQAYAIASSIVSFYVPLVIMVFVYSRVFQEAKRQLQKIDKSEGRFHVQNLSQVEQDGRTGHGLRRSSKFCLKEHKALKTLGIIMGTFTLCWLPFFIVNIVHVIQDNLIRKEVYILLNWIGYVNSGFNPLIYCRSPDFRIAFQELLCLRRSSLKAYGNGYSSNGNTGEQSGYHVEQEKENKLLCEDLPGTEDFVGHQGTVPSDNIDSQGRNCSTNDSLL
LANA-H2B inh: blocks KSHV LANA binding to histone H2A/H2B; Q9QR71; cell-free LANA-H2A/H2B peptide, fluorescence polarization; inhibition, % (test concentration not listed); actives 0.6% (n = 320,000); AID 2629; in the data active = inhibition mostly above about 10%, no sharp cut-off; inactive = mostly below about 6.7%;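 also: stock transfer was 7.5 nL into about 10 µL; 0% = median of vehicle wells and 100% = median of positive control wells; one replicate is shown; the record names a cut of 25% in any replicate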
The depositor's hits bear a star; i = inactive; . = not tested or not shown.

SMILES	HNF4A DNA FP	UCH37 inh	ALR inh	FGF22 binding	E coli growth	B2AR ag	LANA-H2B inh
CCN(CC(=O)NC)S(=O)(=O)c1ccc(Br)cc1	-2.9	6.2	-5	.	0.75	-3	-0.5
CCOC(=O)Nc1nc(C)c(C(=O)N(C)C)s1	-2.7	4.3	-13	.	0.75	-2	2.0
COc1cc2cc(C)nc(Cc3cccc4ccccc34)c2cc1OC	1.2	1.5	.	i	0.76	-9	-7.0
COc1ccc(CCC(=O)OCC(=O)c2c(N)n(CC(C)C)c(=O)n(C)c2=O)cc1	1.1	-2.3	-2	i	0.7	1	-1.1
Cc1cccc(OCCOC(=O)Nc2ccccc2)c1	-1.7	-3.5	0	i	0.69	-8	3.5
Cc1cc(C(=O)CN2CCN(CC(=O)Nc3cccc(F)c3)CC2)c(C)n1C1CC1	4.5	3.0	15	i	0.63	-6	-1.3
CCC1Sc2ccc(S(=O)(=O)CCC(=O)Nc3c(Cl)cc(OC)cc3OC)cc2NC1=O (stereo unspecified)	-17	-1.0	-22	i	0.7	7	2.7
Cc1cccc(Nc2nc3c(S(=O)(=O)c4ccccc4)nnn3c3ccccc23)c1C	3.6	.	7	i	.	0	-5.3
CCOC(=O)C1=C(C)OC(N)=C(C#N)C1c1cc(C)sc1C (stereo unspecified)	-0.1	4.5	8	.	0.64	0	10
Cc1ccccc1Nc1nc(N)nc(CSc2nnc3sc4ccccc4n23)n1	2.6	4.7	-8	.	0.71	-9	2.6
O=C(Nc1cccc(S(=O)(=O)Nc2ccc(Cl)cc2)c1)c1cc2c(s1)CCCC2	0.5	4.4	-2	.	0.68	1	-3.0
CCOC(=O)Cn1c(COc2ccccc2OC)[n+](C)c2ccccc21	2.8	4.6	0	i	0.67	-4	-0.1
COC(=O)C1C(=O)NCC1c1ccc(C)cc1 (stereo unspecified)	-3.0	0.9	-3	i	0.64	8	0.7
CCOC(=O)C1=C(O)/C(=C/c2cc(C)n(-c3ccccc3)c2C)N=C1C	6.5	5.0	.	i	0.65	5	-1.7
COCC(C)NC(C(=O)Nc1ccc(C)c(Cl)c1)c1ccccc1 (stereo unspecified)	3.9	-2.6	5	.	0.67	2	-1.2
O=C(NC(=S)NCc1ccco1)c1ccc([N+](=O)[O-])cc1	1.0	2.3	0	i	0.69	-4	3.5
COc1ccc(C(=O)Oc2cc(/C=N/NC(N)=S)ccc2OC)cc1	-1.9	.	-1	.	.	0	-0.1
CCc1noc(C)c1C(=O)N1CCOCC1	1.7	-0.8	1	.	0.63	-1	-3.6
COc1ccc(NC(=O)C2(S(=O)(=O)c3ccc(C)cc3)CC2)cc1	0.6	1.9	.	i	0.68	0	8.1
CC(=O)Nc1ccc(Oc2nc(C(F)(F)F)nc3ccccc23)cc1	-1.3	1.6	-4	i	0.69	-20	4.6

Compound profiles, from the list above:
Record of `CCC1Sc2ccc(S(=O)(=O)CCC(=O)Nc3c(Cl)cc(OC)cc3OC)cc2NC1=O` (stereo unspecified) = HNF4A DNA FP = -17; UCH37 inh = -1.0; ALR inh = -22; FGF22 binding = i; E coli growth = 0.7; B2AR ag = 7; LANA-H2B inh = 2.7
Record of `COc1ccc(NC(=O)C2(S(=O)(=O)c3ccc(C)cc3)CC2)cc1` = HNF4A DNA FP = 0.6; UCH37 inh = 1.9; ALR inh = .; FGF22 binding = i; E coli growth = 0.68; B2AR ag = 0; LANA-H2B inh = 8.1

Next part:
SMILES	HNF4A DNA FP	UCH37 inh	ALR inh	FGF22 binding	E coli growth	B2AR ag	LANA-H2B inh
Cc1cc(NC(=O)c2cc(CC(C)C)on2)no1	0.3	3.0	-5	i	0.68	-2	1.4
O=[N+]([O-])c1cc(/C=N/N/C(=N/c2ccccn2)c2ccccn2)ccc1O	1.9	.	32	i	.	-2	2.9
COc1cccc(CC2(CO)CCCN(Cc3ccc(CO)o3)C2)c1 (stereo unspecified)	-0.7	5.6	-16	i	0.69	5	-1.7
Cc1nc(NC(=O)COC(=O)/C=C/c2ccco2)c(Cl)cc1Cl	-6.0	4.1	4	i	0.67	2	0.8
Nc1nc(N)n(-c2ccccc2)c(=Nc2ccccc2)n1	0.0	0.7	-1	i	0.68	-3	-0.9
CC(C)(C)OC(=O)Nc1ccc([C@H](NC(=O)OC(C)(C)C)C(=O)OC(C)(C)C)cc1	8.1	-0.4	-14	i	.	3	-1.0
Cc1cc(C(=O)Nc2ccc(S(=O)(=O)N3CCOCC3)cc2)c(C)o1	-0.1	0.2	-7	i	0.72	11	-2.5
COC(=O)[C@H](C)NC(=O)NCc1ccc(F)cc1	-4.7	1.4	0	i	0.71	2	4.3
CCOCCCn1c(=S)[nH]c2cc(C(=O)N3CCN(C4CCCCC4)CC3)ccc2c1=O	-0.7	1.7	0	i	0.65	-6	-3.3
COc1cc(CCNC(=O)CCCn2c(=O)c3cccn3c3cccnc32)cc(OC)c1OC	-3.3	-3.6	-1	i	0.65	-10	2.9
C=CCOc1cccc(C2C(C(=O)c3ccc(C)o3)=C(O)C(=O)N2c2nnc(C)s2)c1 (stereo unspecified)	-13	.	93*	i	.	5	-4.5
CN(C)CCNC(=O)c1sc2nc(-c3ccccc3)cc(C(F)(F)F)c2c1N	9.5	4.8	-4	i	0.61	-37	1.1
O=C(c1ccc(-c2ccc([N+](=O)[O-])cc2)o1)N1CCCCCCC1	3.2	7.5	-2	i	0.68	52*	0.1
CC1CCCCN1C(=O)Cn1c(=O)n(C2CCCCC2)c(=O)c2ccccc21 (stereo unspecified)	-5.7	2.0	-1	.	0.77	3	-1.0
Cc1nc(CCNC(=O)c2cc(COc3ccc(F)cc3Cl)on2)sc1C	3.6	-3.1	5	i	0.64	2	3.2
Cn1c(=O)[nH]c(=O)c2c1nc(NC1CCCCC1)n2CCO	-2.0	3.6	28	i	0.71	2	0.4
COc1cccc(NC(=O)CSc2nc3ccccc3c3nc4ccccc4n23)c1	2.4	-9.5	.	.	0.68	-20	.
COCc1[nH][nH]c(=O)c1C=Nc1ccc(Oc2ccccc2)cc1	0.8	7.0	99*	.	0.71	4	-6.9
Cc1ccc(C(=O)N/C(=C/c2ccc(-c3cc(C(F)(F)F)ccc3Cl)o2)C(=O)NCc2cccnc2)cc1	2.4	-36	2	.	0.68	11	1.9
Cc1ccnc(SCCn2c(N3CCN(C)CC3)nc3c2c(=O)n(C)c(=O)n3C)n1	-0.2	6.1	-1	i	0.64	5	4.4
CC(c1ccccn1)N(C)C(=O)c1ccc2nc(Cc3ccccc3F)oc2c1 (stereo unspecified)	8.7	0.9	-1	i	0.69	-9	2.6
Cc1[nH]c2ccccc2c1SCC(=O)N1CCN(c2ccccc2)CC1	-2.1	3.5	91*	i	0.79	0	-1.8
CC(=O)c1cccc(NCC(=O)N2CCN(S(=O)(=O)c3ccccc3)CC2)c1	-3.0	-2.8	-18	i	0.73	-8	4.2
Cn1c(CC(=O)NNC(=O)c2cncc(Br)c2)nc2ccccc21	-2.4	0.7	13	i	0.7	5	-1.0
C=CCSc1nc(C)c(CC(=O)OCCCC)c(=O)[nH]1	-0.4	1.0	-3	.	0.68	0	1.3
C=CCn1c(SCC(=O)c2c(C)[nH]c3ccccc23)nnc1-c1ccncc1	4.9	5.3	-27	i	0.64	3	7.4
COc1ccc(COCCN2CCN(S(=O)(=O)c3ccccc3)CCC2=O)cc1	-1.9	-3.1	-2	i	0.67	10	1.7
Cc1cc(C)c(S(=O)(=O)N2CCN(C(=O)c3c(C)noc3C)CC2)c(C)c1	-1.4	1.6	0	i	0.68	7	-0.6
O=C(NC(Cc1ccccc1)C(=O)O)/C(=C\c1ccc(F)cc1)NC(=O)c1ccccc1 (stereo unspecified)	3.2	-2.0	.	.	.	2	-3.6
CCOC(=O)c1c(C)[nH]c(C2=NNC(=Nc3ccc(OCC)cc3)SC2)c1C	-0.5	5.6	5	.	0.72	12	9.7
Cc1ccc2[nH]c(=O)c(CN(Cc3cccs3)C(=S)NCC3CCCO3)cc2c1 (stereo unspecified)	-2.3	4.5	14	.	0.69	-6	-3.0
CCn1c(COc2cccc(C)c2)nnc1SCC(=O)Nc1cccc(C(=O)OC)c1	-2.5	0.1	3	.	0.66	-2	-0.9
CCn1cc(/C=C/C(=O)Nc2c(C)nn(Cc3ccccc3)c2C)cn1	3.0	5.7	.	.	0.68	7	5.4
Cc1ccc2nc(Nc3nc(CSc4nc5ccccc5s4)cc(=O)[nH]3)nc(C)c2c1	-1.1	1.3	.	.	0.7	-29	.
CC1(C)C(=O)Nc2ccccc2N1C(=O)CSc1ncccn1	-3.8	-0.2	-19	i	0.65	-3	-0.7
O=C(O)c1cccc(Cn2c(Cl)c(/C=N/NC(=O)c3ccco3)sc2=O)c1	-4.1	.	1	i	.	-5	-4.0
COc1cc(/C=C2\CCc3c2nc2ccccc2c3C(=O)O)cc(OC)c1OC	-48	-15	-5	i	0.64	12	1.1
Cc1ccc(NC(=O)CN2CCc3cc4c(cc3C2C)OCCCO4)cc1 (stereo unspecified)	1.2	0.8	0	i	0.65	4	-0.8
CC(C)NC(=O)/C(=C\c1cccc([N+](=O)[O-])c1)NC(=O)c1ccccc1	-1.4	-1.2	-1	.	0.69	6	2.7
Cc1c(C(=O)NCC2CCCO2)oc2ccc(S(=O)(=O)N3CCCC3)cc12 (stereo unspecified)	3.4	-0.7	-6	.	0.7	2	3.5
Cc1cc(C(=O)Nc2sc3c(c2C#N)CCC3)no1	-4.8	8.8	14	.	0.69	-4	-0.3
CCCC(=O)Nc1ccc(C(=O)COC(=O)c2c(C)noc2C)cc1	-0.5	1.1	.	i	0.6	1	.
Cc1ccc(-c2nnc3ccc(SCC(=O)NCc4ccco4)nn23)cc1	-2.5	-14	4	.	0.73	-7	5.4
CCOC12NC(=O)CC(=O)N1C(c1ccccc1)=CS2 (stereo unspecified)	0.4	2.4	-5	.	0.7	4	2.7
CC1(C2CC2)NC(=O)NC1=O (stereo unspecified)	-1.7	0.8	-4	.	0.67	-1	-5.7
O=C(C[n+]1ccccc1)N/N=C/c1cc(Br)ccc1F	1.4	.	.	i	.	-9	1.0
O=C(CSc1ncccn1)N1CCCCCC1	-0.1	2.5	-4	i	0.71	0	-4.8
CCCN1CCN(CC(=O)Nc2cc(OCC)ccc2OCC)CC1	-0.1	5.2	-8	i	0.68	-2	-2.6
CC1(C)C2CCC1(C)C(OCC[N+](C)(C)CC(=O)OC1CCCCC1)C2 (stereo unspecified)	2.8	3.8	-41	i	0.68	-6	27*
COc1ccc(NC(=O)Nc2cccc(C(=O)N3CCOCC3)c2)cc1OC	1.1	2.9	-43	.	0.7	9	4.4
Cc1cc(C)n(-c2ccc(-n3ccnc3)nn2)n1	0.9	-0.3	-4	.	0.7	7	-0.5
NC(=O)c1ccccc1O	-0.8	-5.0	.	i	.	-12	1.0
Cc1cc(OC(F)F)ccc1NC(=O)Nc1ccc2c(c1)OCO2	-1.6	3.7	-1	i	0.71	-5	-4.8
CC(=O)Nc1ccc(OCc2nnc(-c3ccccc3)o2)cc1	0.2	0.7	-11	i	0.67	1	2.4

6 of the compounds above, with values under each structure.
Values run as follows: HNF4A DNA FP, UCH37 inh, ALR inh, FGF22 binding, E coli growth, B2AR ag, LANA-H2B inh
- O=C(CSc1ncccn1)N1CCCCCC1
→ -0.1, 2.5, -4, i, 0.71, 0, -4.8
- CCCN1CCN(CC(=O)Nc2cc(OCC)ccc2OCC)CC1
→ -0.1, 5.2, -8, i, 0.68, -2, -2.6
- CC1(C)C2CCC1(C)C(OCC[N+](C)(C)CC(=O)OC1CCCCC1)C2 (stereo unspecified)
→ 2.8, 3.8, -41, i, 0.68, -6, 27*
- COc1ccc(NC(=O)Nc2cccc(C(=O)N3CCOCC3)c2)cc1OC
→ 1.1, 2.9, -43, ., 0.7, 9, 4.4
- Cc1cc(C)n(-c2ccc(-n3ccnc3)nn2)n1
→ 0.9, -0.3, -4, ., 0.7, 7, -0.5
- NC(=O)c1ccccc1O
→ -0.8, -5.0, ., i, ., -12, 1.0

Assay outcomes deposited in PubChem BioAssay by several laboratories.

Some of the compounds tested; count on the stated rates, not on these rows.
